Bioassay records from PubChem.
ClpP mod – qHTS Assay for Activators of ClpP; purified B. subtilis ClpP, FRET peptide cleavage, 20 min; Potency, µM (top dose mostly 57.5 µM), without a hit: top-dose activity change, negative = active; actives 1.9% (n = 340,000); AID 651965, 2013; active = well fitted falling curve with a large enough effect; inconclusive = small, poorly fitted or top-dose-only effect; inactive = no such curve, though single readings can be large or run the other way; further: potency means the concentration at half of the fitted maximal effect; the source files actives as falling curves though it sought activators and does not explain the sign; nearly all actives have a fitted effect of over 65% in size; many hits overshoot -100%
Target sequence (P80244 whole entry, looked up): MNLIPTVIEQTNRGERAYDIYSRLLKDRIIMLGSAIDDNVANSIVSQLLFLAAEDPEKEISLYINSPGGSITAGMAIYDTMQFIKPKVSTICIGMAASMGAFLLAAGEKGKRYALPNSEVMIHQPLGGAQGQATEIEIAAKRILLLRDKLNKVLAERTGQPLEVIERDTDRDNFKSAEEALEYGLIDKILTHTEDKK
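FRET quenching reversal measured ClpP activation: 10 microg/mL B. subtilis ClpP at pH 8 with the FRET-FV decapeptide, read at 430 nm after 320 nm excitation. The 20-min minus 0-min signal was scaled between DMSO/no-enzyme wells and ADEP (5.8 microM final).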
TRPV1 PAM – HTS Assay for Compounds that Act as Potentiators of the Vanilloid Receptor 1; TRPV1-expressing cells, Fluo-8 calcium influx, capsaicin EC20 potentiation; host cell line not named in the record; control for the full effect not named in the record; potentiation, % at 8.33 µM; actives 0.02% (n = 320,000); AID 540277, 2011; Transient receptor potential cation channel subfamily V member 1 (Homo sapiens), Q8NER1; active means potentiation above 80%; inconclusive means 30% to 80%; inactive means below 30%; further: 0% is about no effect
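Cells expressing TRPV1 were dye-loaded with Fluo-8 and read kinetically: 10 s baseline, 3 min after compound (agonist portion), then 2 min after EC20 capsaicin (allosteric enhancer portion). Calcium-bound dye fluorescence at 480/520 nm.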
gsp antag – qHTS for Antagonists of gsp, the Etiologic Mutation Responsible for Fibrous Dysplasia/McCune-Albright Syndrome: qHTS; actives 0.4% (n = 340,000); Potency, µM (top dose mostly 76.9 µM), inactives show top-dose activity change, negative = inhibition, hits mostly inhibitors; gsp-mutant cells, cAMP HTRF, 30 min; control for the full effect not named in the record; AID 624288, 2012; active = falling curve of any shape with a large fitted effect; inconclusive = falling curve, mostly with a smaller effect; inactive = flat or rising curve; cell line not stated here;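 further: intracellular cAMP measured with PDE inhibitor Ro 20-1724 present during compound exposure; potency means the concentration at half of the fitted maximal effect; on the % scale 0 is the no-effect control and ±100 the full control effect; nearly all actives have a fitted effect of over 65% in size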
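Measurement of cellular cAMP by homogeneous time-resolved fluorescence following a 30 min compound exposure at 37C. The PDE inhibitor […] was present throughout; the assay buffer was DPBS with 0.05% BSA and 0.005% Tween 20.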
gsp agonist – qHTS for Agonist of gsp, the Etiologic Mutation Responsible for Fibrous Dysplasia/McCune-Albright Syndrome: qHTS | gsp mutant cells, cAMP HTRF, 30 min; control for the full effect not named in the record | Potency, µM (doses to about 76.9 µM), for inactives: top-dose activation (cAMP increase), usual class: activators | actives 0.13% (n = 340,000) | AID 624287, 2012; active = well fitted activation curve with a large enough effect; inconclusive = small, poorly fitted or top-dose-only effect, or another doubt; inactive = no such curve, though single readings can be large or run the other way; cell line not stated here;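 further: phosphodiesterase inhibitor Ro 20-1724 added with compounds to block cAMP breakdown; potency means the concentration at half of the fitted maximal effect; nearly all actives have a fitted effect of over 60% in size; about a fifth of the inactives were tested at one dose only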
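Cells stably selected in G418 were plated at 2000/well, grown 16-24 hr, then given compounds in DMSO with the PDE inhibitor […] (300 uM solution added) for 30 min at 37C; cAMP was read by HTRF.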
Menin MLL FP FL – qHTS Assay for Inhibitors Targeting the Menin-MLL Interaction in MLL Related Leukemias: Competition With Fluorescein Labeled MLL-derived Peptide | Fluorescence polarization, fluorescein-MLL peptide displacement from menin | FP activity change, % at 61.4 µM | 290,000 tested, under 10 active | AID 1766, 2009; inconclusive = falling polarisation curve, or a change in total fluorescence; inactive = total fluorescence flat and polarisation flat or rising; no compound was filed as active; the % refers to the polarisation; negative = inhibition;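 further: % of control where 0% means no effect; inhibitors lower the polarisation; unlabelled MLL peptide was the positive control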
TRPML1 blocker – qHTS for Inhibitors of the Human Mucolipin Transient Receptor Potential 1 (TRPML1); TRPML1-inducible cells, Ca2+ dye fluorescence, FDSS; hits give low values; inhibition of EC80 agonist-evoked calcium signal; AID 624415, 2012; Mucolipin-1 (Homo sapiens), Q9GZU1; activity change, negative = inhibition, % (no concentration beside the values); actives 0.02% (n = 390,000); in the data active means activity change below about -50%; inconclusive means about -30% to -50%; inactive means above about -30%;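 further: stimulus is agonist 54-4 at its EC80 concentration; on the % scale 0 is the no-effect control and ±100 the full control effect; compound concentration not given in the record; the text of the record puts the active cut at -80%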
Target sequence (Q9GZU1 whole entry, looked up): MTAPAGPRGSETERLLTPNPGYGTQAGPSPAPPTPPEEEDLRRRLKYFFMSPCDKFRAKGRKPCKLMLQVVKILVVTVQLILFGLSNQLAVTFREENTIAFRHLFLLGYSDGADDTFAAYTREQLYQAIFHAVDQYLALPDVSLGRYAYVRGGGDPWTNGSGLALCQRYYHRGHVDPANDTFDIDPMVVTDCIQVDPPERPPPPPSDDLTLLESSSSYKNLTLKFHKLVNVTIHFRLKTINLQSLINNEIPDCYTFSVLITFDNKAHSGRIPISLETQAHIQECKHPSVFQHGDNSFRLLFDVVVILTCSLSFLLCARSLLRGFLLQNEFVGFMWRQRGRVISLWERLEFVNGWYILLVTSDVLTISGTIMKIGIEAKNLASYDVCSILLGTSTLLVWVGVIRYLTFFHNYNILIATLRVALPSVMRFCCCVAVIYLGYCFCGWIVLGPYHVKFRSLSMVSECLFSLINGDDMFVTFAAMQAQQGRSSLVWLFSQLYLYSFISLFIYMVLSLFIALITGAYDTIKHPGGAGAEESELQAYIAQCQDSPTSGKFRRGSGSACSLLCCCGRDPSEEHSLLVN
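TRPML1-DL cells, Tet-induced overnight (~16 h, 37 °C) at 1,500 cells/well, were loaded with Ca8 no-wash dye plus quencher for 45-90 min at room temperature. Compounds were pinned during FDSS kinetic reading; agonist 54-4 at EC80 (4 uM final) then added.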
Sfp PPTase inh – qHTS Assay for Inhibitors of Bacillus subtilis Sfp phosphopantetheinyl transferase (PPTase) | 4'-phosphopantetheinyl transferase ffp (Bacillus subtilis), Q9F4F7 | Biochemical Sfp PPTase activity, qHTS | Potency, µM, for inactives: max response, negative = inhibition, most hits filed as inhibitors | actives 3.5% (n = 310,000) | AID 1490, 2009; active means well fitted inhibition curve with a large enough effect; inconclusive means small, poorly fitted or top-dose-only effect, or another doubt; inactive means no such curve, though single readings can be large or run the other way;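 further: the enzyme is Sfp with the accession as filed and its product quenches rhodamine fluorescence; potency means the concentration at half of the fitted maximal effect; 0% = enzyme reaction without inhibitor and -100% = no enzyme wells; top concentration of the series not given in the record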
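Reaction rates are the 30-min fluorescence difference (ex 525, em 598 nm) in wells containing 15 nM Sfp, 5 uM rhodamine-CoA and 12.5 uM BHQ-2-YbbR at pH 7.6 with 10 mM MgCl2.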
* hit, by the source's call; ? = inconclusive; / = not tested or not shown; & = joins results of further samples; [ ] = another dose, or the depositor's remark.

SMILES | ClpP mod | TRPV1 PAM | gsp antag | gsp agonist | Menin MLL FP FL | TRPML1 blocker | Sfp PPTase inh
COc1ccc2c(c1)c([C@@H]1[C@H](C)[C@H]3CCCC[C@H]3CN1S(=O)(=O)c1ccc(C)cc1)cn2C | -2.9% | / | 2% | / | / | -3 | /
CCOC(=O)c1cnc2c(Cl)cccc2c1NCCN(C)C | -11% | -4 | 5% | -4% | -13 | 6 | 3%
CCCCOC(=O)c1ccc(NC(=O)COC(=O)C2CC2C)cc1 (centres undefined) | -0.1% | / | / | ? | / | 9 | /
C=CCn1c(CSCc2ccccc2)nnc1SCC(=O)N1CCN(c2ccccc2)CC1 | -1.0% | 6 | -16% | -13% | ? | 24 | ?
CN(C)CCN(C(=O)c1ccc2ccccc2c1)c1nc2cc3c(cc2s1)OCO3 | -8.6% | / | / | -41% | / | -2 | /
O=C(Cc1ccc(-c2ccccc2)cc1)NCCN1CCOCC1 | -2.6% | 4 | 10% | ? | -0.5 | -2 | 16%
Cc1ccc(CCNC(=O)c2cc(S(=O)(=O)N3CCOCC3)cn2C)cc1 | 0.8% | 3 | 5% | 8% | 3.5 | -3 | 6%
C/C(=N\NC(=O)C1COc2ccccc2O1)c1ccccn1 (centres undefined) | -22% | -1 | 7% | ? | 2.0 | -5 | 22%
Nc1c(C(=O)NCC2CCCO2)sc(=S)n1-c1ccccc1 (centres undefined) | 0.5% | -16 | 8% | 0% | 0.5 | -7 | ?
O=C(O)c1ccc(N2C(=O)CSC2=S)cc1 | / | / | -19% | 6% | / | 9 | /
O=C1N(c2ccccc2)C(c2ccccc2)N2CCCN12 (centres undefined) | 1.1% | -1 | 3% | -31%[inhibitor] | -0.5 | -3 | 12%
COc1ccc(NC(=O)CN2CCN(CC(=O)Nc3ccc(F)cc3)CC2)cc1Cl | -3.2% | -1 | -2% | ? | 2.0 | -4 | 10%
O=C(Nc1ccc(N2CCOCC2)cc1)Nc1ccc(Cl)c(Cl)c1 | 7.7% | -8 | -31% | -23% | 0.0 | -7 | -23%
COc1cccc(N2CCN(C(=O)c3ccc(=O)oc3)CC2C)c1 (centres undefined) | 28µM* | / | -8% | 22% | ? | 5 | 35µM*
Cc1cccn2c(=O)nc(SCC(=O)NCc3ccccc3)nc12 | / | -5 | 12% | 11%[15.4 µM] | / | -16 | /
O=C(NCc1ccc(Cl)cc1)C1CCC(=O)N(C2CCCCCC2)C1 (centres undefined) | -1.1% | -8 | 11% | -26% | / | 1 | 8%
CC(NC(=O)c1noc2c1CCCCC2)c1ccccc1 (centres undefined) | 0.9% | -22 | 10% | -2% | -0.4 | 26 | -16%
CCOCCCNC(=O)/C(C#N)=C/c1ccc(C)o1 | / | -14 | 9% | ? | -7.4 | -16 | -12%
NS(=O)(=O)c1ccc(CCNC(=S)NC2CCCCC2)cc1 | / | 0 | 5% | -9%[15.4 µM] | 1.8 | -29 | 5%
CCNC(=O)Nc1nc2ccccc2s1 | 1.8% | -2 | -6% | ? | -1.3 | 0 | -1%
Cc1ccc(C(=O)Nc2nc(-c3ccc4c(c3)OCCO4)cs2)o1 | -16% | / | / | ? | / | -2 | /
CC(=O)c1cc(-c2ccccc2)n(CCC(=O)NC(C)(C)C)c1C | / | -19 | -3% | -19% | 2.4 | 4 | 13%
COc1ccc(NC(=O)C2CCN(C(=O)C3CC(=O)N(c4ccc(C)cc4)C3)CC2)cc1 (centres undefined) | / | -9 | -15% | -5%[15.4 µM] | -0.7 | -5 | 17%
CC1(C)CC2CC(C)(CN2C(=O)NC(=O)c2ccccc2)C1 (centres undefined) | -1.2% | 5 | 14% | 2% | -0.8 | -18 | 15%
CC(OC(=O)C1=COCCO1)C(=O)NC(C)c1ccc(Cl)cc1Cl (centres undefined) | -2.4% | 12 | 6% | 12% | / | -3 | /
SMILES | ClpP mod | TRPV1 PAM | gsp antag | gsp agonist | Menin MLL FP FL | TRPML1 blocker | Sfp PPTase inh
COc1ccccc1C(=O)NCC(=O)OCc1nnc(-c2ccccc2)o1 | -1.3% | / | / | -58%[inhibitor] | / | 8 | /
CCCCC(=O)NC1=NC(=O)C(C)(C)S1 | 3.3% | 18 | -5% | -22% | 0.6 | -3 | 2%
CCn1nc(C)cc1-c1n[nH]c(=S)n1N | 0.5% | -5 | 8% | -31%[inhibitor] | 1.5 | 19 | 45µM*
COc1ccc(NC(=O)CN2C(=O)CSc3ccc(S(=O)(=O)N4CCCC4)cc32)cc1OC | 0.8%&0.1% | -2 | -4% | 13% | 3.7 | ? | 10%
COc1cccc(Cn2cc(/C=N/NC(=O)c3cc(O)cc(O)c3)c3ccccc32)c1 | -27% | 2 | 1% | 4% | / | 25 | -19%
COCCN1C(=O)N[C@@H](c2ccccc2)C(C(C)=O)=C1C | 1.2% | -2 | 4% | 3% | -2.2&-0.9 | 1 | 6%&13%
Cc1ccc(NC(=O)COc2ccc(Br)cc2C)cc1 | -3.0% | -5 | -3% | -1% | -0.1 | 17 | 8%
Cc1ccc(C(=O)Nc2nc(=O)n(C(=O)c3ccccc3C)s2)cc1 | 0.4% | 16 | 40µM* | 1% | -1.9 | 13 | 0%
COc1ccccc1C(=O)O/N=C(\c1ccccc1)c1ccncc1 | / | -7 | 2% | 12% | -4.3 | 19 | 2%
O=C(CCCOc1ccccc1)Nc1ccc(Cl)c(S(=O)(=O)N2CCOCC2)c1 | 1.0% | / | ? | -65%[inhibitor] | / | -2 | /
COC(=O)[C@H](Cc1ccccc1)NC(=O)N1Cc2ccccc2C[C@H]1C(=O)OC | -0.4% | -3 | 4% | -4% | -1.0 | -7 | 12%
CC(C)Sc1nc2ccccc2n2cnnc12 | / | 23 | -2% | -30% | -3.6 | -4 | 0%
Cc1nc(C)c(C(=O)Nc2ccc(Oc3ccccc3)cc2)o1 | -1.9% | -16 | -31% | -21% | 0.4 | 36 | 1%
CCN(C(=O)COc1ccccc1[N+](=O)[O-])C1CCS(=O)(=O)C1 (centres undefined) | -0.3% | 0 | 12% | -4%[15.4 µM] | 3.1 | 1 | 8%
CCN1C[C@@H]2[C@@H]3C(=O)N(C)C(=O)[C@@H]3[C@](CC)(C1=O)N2C(=O)c1ccc(C(C)(C)C)cc1 | -1.4% | / | 5% | / | / | 25 | /
O=C(C(Cl)Cl)N1CCN(Cc2ccc3c(c2)OCO3)CC1 | -0.2% | -3 | -1% | -11% | 6.9 | 18 | 10%
Cc1ccc(C(=O)N2CCN(CCNC(=O)C(=O)NCc3ccc(Cl)cc3)CC2)cc1 | 0.2% | -5 | -1% | -75%[inhibitor] | / | -8 | -10%
COc1ccc(OCC(=O)Nc2cccc(NC(=O)COc3ccc(OC)cc3)n2)cc1 | -8.5% | 10 | 12% | 0% | 3.0 | -5 | 0%
O=C(Nc1ccccc1Br)C1CC(=O)N(c2ccc3c(c2)OCCO3)C1 (centres undefined) | -1.7% | -5 | 1% | -40%[inhibitor] | / | 45 | /
CC1(C)N=C(N)NC(Nc2ccccc2Cl)=N1 | / | 0 | 12% | 30%[15.4 µM] | -2.8 | 16 | 4%
Cc1cc(=O)[nH]c2c1cnn2C(C)c1ccccc1 (centres undefined) | -9.3% | -8 | 5% | -1% | -12 | 16 | -7%
COc1cc(C)c(Cl)cc1S(=O)(=O)NCC1CCCO1 (centres undefined) | -5.1% | 1 | 2% | -24% | 2.1 | 18 | 14%
COc1cc(/C=N/NC(=S)Nc2cccc(Cl)c2C)ccc1OCC(=O)N1CC(C)OC(C)C1 (centres undefined) | -5.8% | 11 | ? | -17% | 7.4 | 14 | 10%
CN(C)c1ccc(NC(=O)c2ccc3nsnc3c2)cc1 | 2.2% | 8 | -4% | 4% | -0.3 | 3 | -8%
O=C(NC1CCCC1)C(c1ccc(F)cc1)N(C(=O)Cc1cccs1)c1ccc2c(c1)OCCO2 (centres undefined) | 1.1% | -23 | -1% | -24% | 1.8 | -2 | 10%
SMILES | ClpP mod | TRPV1 PAM | gsp antag | gsp agonist | Menin MLL FP FL | TRPML1 blocker | Sfp PPTase inh
O=C(CSc1nnc2ncccn12)N1CCCCCC1 | -18% | 3 | 5% | 16% | 1.3 | -5 | 26%
COc1ccccc1CNC(=O)N1CCN(c2ccccc2C)CC1 | / | -2 | -13% | -10% | -11 | 17 | -3%
OCCN(CCO)CC(O)COc1ccc2c(c1)OCO2 (centres undefined) | 3.2% | 27 | 7% | 0% | -6.4 | -2 | -11%
CC(CNC(=O)Cn1cnc2c(NCc3ccccc3)ncnc21)c1ccccc1 (centres undefined) | 2.2% | / | -5% | / | / | -1 | /
Nc1nn(S(=O)(=O)c2ccccc2)cc1-c1ccc([N+](=O)[O-])cc1 | -0.9% | 1 | ? | -17% | 6.0 | 16 | 15%
COc1ccc(N2C(=O)CC(Sc3nnc(-c4ccccc4)o3)C2=O)cc1 (centres undefined) | 20% | -21 | 6% | 28µM* | 3.4 | 3 | 56µM*
Nc1ccc2c(Cl)cc(Cl)cc2c1 | -21% | / | / | -4% | / | 0 | /
CCOC(=O)c1cccc(NC(=O)CN(c2ccc(C)cc2)S(=O)(=O)c2c(C)noc2C)c1 | -2.2% | -4 | 3% | 10% | 1.5 | 15 | 9%
Cc1ccc(-c2nn(CCC(=O)O)cc2/C=C\C(=O)c2ccc(Br)cc2)cc1 | -1.0% | 3 | ? | -32%[inhibitor] | 0.2 | -23 | -3%
